A350 autofl – compound fluoresces in the Alexa 350 spectral region. Compound autofluorescence, 340/450 nm, Alexa 350 dye-equivalents; active compounds read high. max dye-equivalent concentration, M. 11% of 59,000 active. AID 590; in the data active means max dye-equivalent concentration above about 10 nM; inconclusive means mostly about 1.1 nM to 9.6 nM
Fluorescein autfl – fluorescein region autofluorescence. Compound autofluorescence, 480/540 nm, fluorescein-equivalent; active compounds read high. max fluorescein-equivalent concentration, M. 0.91% of 59,000 active. AID 593; in the data active means max fluorescein-equivalent concentration above about 10 nM; inconclusive means between about 1.1 nM and that limit
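Library compounds, added at multiple concentrations to pH 8.0 Tris buffer (100 mM), incubate 15 min at room temperature before CCD imaging at 480 nm excitation and 540 nm emission.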
Tau filament bind – binds recombinant human tau filaments; recombinant tau filaments, thioflavin S fluorescence, 15 h; filaments grown with octadecylsulfate alongside compound; Potency, µM (top dose mostly 57.1 µM), for the others: at the highest dose activity change, negative = inhibition; 2% of 71,000 active;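 further: potency means the concentration at half of the fitted maximal effect; on the % scale 0 is the no-effect control and ±100 the full control effect; actives lower thioflavin S fluorescence by blocking filaments or displacing dye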
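His-tagged recombinant human tau (exons 2, 3 and 10 included), 1 uM, was induced to fibrillize by 30 uM sodium octadecylsulfate with compound present. After 15 h at 37 C, thioflavine S fluorescence (ex 450, em 510 nm) was read.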
FLuc inh – blocks Photinus pyralis firefly luciferase activity; 2.2% of 72,000 active; purified firefly luciferase, luminescence, 8 min; Potency, µM (series often up to 57.1 µM), for the others: top-dose activity change, negative = inhibition, actives largely listed as inhibitors; AID 411; further: potency means the concentration at half of the fitted maximal effect; on the % scale 0 is the no-effect control and ±100 the full control effect; nearly all actives have a fitted effect of over 40% in size
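Compounds were tested as concentration series (qHTS) against purified P. pyralis luciferase with luciferin and 10 uM ATP in 50 mM imidazole pH 7.2, 50 mM KCl, 7 mM MgCl2, 0.01% Tween 20, 0.05% BSA. Luminescence was read after 8 min at ambient temperature.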
Caspase-1 inhib – blocks human caspase-1 allosterically or competitively; P29466; Caspase-1 enzyme, Ac-WEHD-AFC fluorogenic rate; Potency, µM (titrated, usually from 57.5 µM), inactives show top-dose activity change, negative = inhibition, most hits filed as inhibitors; 0.03% of 75,000 active; AID 900;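 further: potency means the concentration at half of the fitted maximal effect; plate controls were vehicle for no effect and no substrate for full effect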
Target sequence (P29466 120-297 limits assumed): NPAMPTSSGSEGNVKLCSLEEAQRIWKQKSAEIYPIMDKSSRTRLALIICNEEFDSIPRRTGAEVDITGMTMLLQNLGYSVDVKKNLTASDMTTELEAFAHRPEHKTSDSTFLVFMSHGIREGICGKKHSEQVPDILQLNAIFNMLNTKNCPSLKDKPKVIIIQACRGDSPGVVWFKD
Target sequence (P29466 317-404 limits assumed): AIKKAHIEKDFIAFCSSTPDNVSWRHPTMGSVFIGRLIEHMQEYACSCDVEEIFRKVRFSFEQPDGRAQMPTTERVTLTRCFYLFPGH
ERK AVP block – inhibitors of vasopressin-stimulated ERK signaling pathway | HEK293-V1b, vasopressin-stimulated pERK AlphaScreen | Potency, µM (highest dose often 57.5 µM), for inactives: at the highest dose activity, negative = inhibition, actives largely listed as inhibitors | 0.99% of 72,000 active; further: potency means the concentration at half of the fitted maximal effect; on the % scale 0 is the no-effect control and ±100 the full control effect; nearly all actives have a fitted effect of over 55% in size
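HEK293 cells stably expressing V1b receptor, preincubated 30 min at 37 °C with compound, then stimulated 5 min with 25 nM vasopressin. Phospho-ERK by AlphaScreen SureFire after 5 h RT; normalized to DMSO and vasopressin; AC50 by Hill fit.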
Rhodamine fluor – compound autofluorescence in rhodamine spectral region; Rhodamine-region fluorescence, 547/598 nm, Tris buffer; active compounds read high; max dye-equivalent concentration, M; 0.05% of 59,000 active; AID 594; in the data active means max dye-equivalent concentration above about 11 nM; inconclusive means between about 1.1 nM and that limit
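Intrinsic compound fluorescence, ex 547 / em 598 nm, CCD imager. Tris 100 mM pH 8.0; 15 min RT. Output = rhodamine dye-equivalent concentration at each compound concentration.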
Texas Red fluor – compounds fluorescent in Texas Red spectral region; 0.06% of 59,000 active; max dye-equivalent concentration, M; Compound fluorescence, Texas Red channel, 547/618 nm; active compounds read high; AID 587; in the data active means max dye-equivalent concentration above about 10 nM; inconclusive means between about 1.1 nM and that limit
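Compound fluorescence was read after 15 min at room temperature in 100 mM Tris, pH 8.0, using 547 nm excitation and 618 nm emission across a concentration series. It was expressed as Texas Red dye-equivalent concentration from an on-plate standard curve.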
4-MU autofl – 4-MU region autofluorescence; compound autofluorescence, 340/450 nm, 4-MU equivalents; active compounds read high; max dye-equivalent concentration, M; AID 589; 11% of 59,000 active; in the data active means max dye-equivalent concentration above about 10 nM; inconclusive means mostly about 1.1 nM to 9.6 nM
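Intrinsic fluorescence at 340/450 nm (ex/em) was read after 15 min at room temperature in pH 8.0, 100 mM Tris. Each compound concentration expressed as 4-MU-equivalent concentration from a six-point 4-MU standard series on each plate.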
Caspase-7 inhib – blocks human caspase-7 allosterically or competitively. AID 889. recombinant caspase-7, Ac-DEVD-AFC fluorescence rate. Potency, µM (top dose mostly 57.5 µM), for inactives: at the highest dose activity change, negative = inhibition, hits mostly inhibitors. 0.02% of 75,000 active; active means well fitted inhibition curve with a large enough effect in the main read-out, with a control signal flat, not every such curve was filed as active; inconclusive means small, poorly fitted or top-dose-only effect, or a change in a side signal; further: potency means the concentration at half of the fitted maximal effect; % of control where 0% means no effect
Target sequence (P55210 24-198 limits assumed): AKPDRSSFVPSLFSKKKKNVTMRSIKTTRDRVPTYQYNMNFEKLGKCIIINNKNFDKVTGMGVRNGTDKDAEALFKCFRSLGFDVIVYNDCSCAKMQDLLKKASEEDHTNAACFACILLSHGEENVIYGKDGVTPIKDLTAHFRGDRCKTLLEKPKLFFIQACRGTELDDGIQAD
Target sequence (P55210 207-303 limits assumed): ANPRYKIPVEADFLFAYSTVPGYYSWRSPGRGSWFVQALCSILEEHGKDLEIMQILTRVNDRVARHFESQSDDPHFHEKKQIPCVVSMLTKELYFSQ
* marks the source's active call; other numbers are inactive results; i = inactive; ? = inconclusive; . = no result given; & = joins results of further samples; [ ] = remark or other dose. Unless noted, the call rests on the fitted dose curve; in most records, active means well fitted curve in the direction sought with a large enough effect; inconclusive means small, poorly fitted or top-dose-only effect, or another doubt; inactive means no such curve, though single readings can be large; an effect the other way counts as inactive or inconclusive. An excerpt; rates above refer to the full screens.

SMILES | 4-MU autofl | A350 autofl | Texas Red fluor | Caspase-7 inhib | Caspase-1 inhib | Fluorescein autfl | ERK AVP block | FLuc inh | Tau filament bind | Rhodamine fluor
CN1C(C)(C)CCCC1(C)C | i | i | i | 3% | 2% | ? | -4% | -2%[25.5 µM] | 4%[25.6 µM] | i
Cn1c([N+](=O)[O-])cnc1COC(N)=O | i | i | i | 0% | 0% | ? | 7% | 0%&6%[25.5 µM] | 11%[25.6 µM] | i
O=C(/C=C/c1c(C(=O)O)[nH]c2cc(Cl)cc(Cl)c12)Nc1ccccc1 | . | . | . | -7% | -3% | . | -3% | . | . | .
O=C(Nc1ccncc1)c1ccccc1F | . | . | . | 0% | -2% | . | -6% | 0% | 3% | .
CCOCCCNC(=O)NC12CC3CC(CC(C3)C1)C2 | i | i | i | -1% | 0% | i | 14% | 0% | 0% | i
CC(C)N=C=NC(C)C | . | . | . | 1% | -2% | . | 16% | . | -1% | .
Clc1ccc(C2=CSC3=NCCN23)cc1Cl | i | ? | i | 0% | 1% | i | -16% | 0% | 29% | i
c1ccc2oc(SCc3cn4ccsc4n3)nc2c1 | i | i | i | -1% | 0% | i | -6% | -1% | 13% | i
CC[N+](CC)(CCNC(=O)C(=O)NCC[N+](CC)(CC)Cc1ccccc1Cl)Cc1ccccc1Cl | . | . | . | -1% | 1% | . | 2% | 1% | -23% | .
Cc1nn(CCc2nc(-c3ccco3)cs2)c2[nH]c(=O)cc(C(F)(F)F)c12 | i | i | i | -12% | -4% | i | 6% | 1% | -9% | i
COc1ccc(-c2cn3cc(Cl)ccc3n2)cc1OC | 7.3e-08M* | 6.9e-08M* | i | -2% | -2% | i | -11% | ? | 21% | i
O=C(NCC(=O)N(Cc1ccccc1)C(C(=O)NC1CCCC1)c1ccco1)c1ccco1 (stereo not drawn) | i | i | i | 1% | -2% | ? | -26% | 4% | -8% | i
CC(=O)C1=C(O)C(=O)N(Cc2ccccc2)C1c1cccs1 (stereo not drawn) | i | i | i | -3% | 0% | i | -20% | -1% | -23% | i
CCCCNC(=O)NS(=O)(=O)c1ccc(C)cc1 | i | i | i | 1% | -1% | ? | -4% | 1%[25.5 µM] | 2% | i
c1ccc2c(c1)[nH]c1ccccc12 | . | . | . | 2% | -2% | . | 26% | . | 4% | .
COc1ccc(-c2cc(=O)c3c(O)cc(O)cc3o2)cc1 | i | i | i | -9% | -3% | ? | ? | 10µM* | 12%[25.6 µM] | i

At a glance, part of the list above:
SMILES | 4-MU autofl | A350 autofl | Texas Red fluor | Caspase-7 inhib | Caspase-1 inhib | Fluorescein autfl | ERK AVP block | FLuc inh | Tau filament bind | Rhodamine fluor
CCOCCCNC(=O)NC12CC3CC(CC(C3)C1)C2 | i | i | i | -1% | 0% | i | 14% | 0% | 0% | i
CC(C)N=C=NC(C)C | . | . | . | 1% | -2% | . | 16% | . | -1% | .
Clc1ccc(C2=CSC3=NCCN23)cc1Cl | i | ? | i | 0% | 1% | i | -16% | 0% | 29% | i
c1ccc2oc(SCc3cn4ccsc4n3)nc2c1 | i | i | i | -1% | 0% | i | -6% | -1% | 13% | i
CC[N+](CC)(CCNC(=O)C(=O)NCC[N+](CC)(CC)Cc1ccccc1Cl)Cc1ccccc1Cl | . | . | . | -1% | 1% | . | 2% | 1% | -23% | .
Cc1nn(CCc2nc(-c3ccco3)cs2)c2[nH]c(=O)cc(C(F)(F)F)c12 | i | i | i | -12% | -4% | i | 6% | 1% | -9% | i
COc1ccc(-c2cn3cc(Cl)ccc3n2)cc1OC | 7.3e-08M* | 6.9e-08M* | i | -2% | -2% | i | -11% | ? | 21% | i
O=C(NCC(=O)N(Cc1ccccc1)C(C(=O)NC1CCCC1)c1ccco1)c1ccco1 (stereo not drawn) | i | i | i | 1% | -2% | ? | -26% | 4% | -8% | i
CC(=O)C1=C(O)C(=O)N(Cc2ccccc2)C1c1cccs1 (stereo not drawn) | i | i | i | -3% | 0% | i | -20% | -1% | -23% | i
CCCCNC(=O)NS(=O)(=O)c1ccc(C)cc1 | i | i | i | 1% | -1% | ? | -4% | 1%[25.5 µM] | 2% | i
c1ccc2c(c1)[nH]c1ccccc12 | . | . | . | 2% | -2% | . | 26% | . | 4% | .
COc1ccc(-c2cc(=O)c3c(O)cc(O)cc3o2)cc1 | i | i | i | -9% | -3% | ? | ? | 10µM* | 12%[25.6 µM] | i

Following part:
SMILES | 4-MU autofl | A350 autofl | Texas Red fluor | Caspase-7 inhib | Caspase-1 inhib | Fluorescein autfl | ERK AVP block | FLuc inh | Tau filament bind | Rhodamine fluor
O=C(c1ccc(O)cc1)c1ccc(Cl)cc1 | . | . | . | 0% | -2% | . | ? | -5% | 5% | .
COc1ccc(NS(=O)(=O)c2cc(OC)ccc2NC(=O)c2cc(C)oc2C)cc1 | i | i | i | -3% | -3% | ? | -27% | -3% | -11% | i
COc1ccc(N(CC(=O)N2CCN(Cc3ccc4c(c3)OCO4)CC2)S(C)(=O)=O)cc1OC | . | . | . | 0% | -2% | . | -17% | 0% | 13% | .
NC(=O)Nc1nc2ccccc2[nH]1 | . | . | . | -2% | 1% | . | 7% | . | 6% | .
COC(C)=O | . | . | . | 1% | -1% | . | 8% | . | 1% | .
c1ccc(-c2cnc(-c3cccnc3)o2)cc1 | . | . | . | -1% | -1% | . | -29% | -22% | -1% | .
OC(CN1CCC(Cc2ccc(F)cc2)CC1)c1ccc(Cl)cc1 (stereo not drawn) | . | . | . | 5%&0% | 0%&1% | . | 11%&0% | . | . | .
Cc1ccc2nc(-c3ccccc3)cn2c1 | i | i | ? | -6% | 1% | ? | 23% | 0.25µM* | -4% | i
CCCC[C@H](CC)CN=C(N)NC(N)=NCCCCCCN=C(N)NC(N)=NC[C@@H](CC)CCCC | i | i | i | -8%[25.7 µM] | -1%[25.7 µM] | ? | -42%[25.7 µM] | 2%[25.5 µM] | 168%[25.6 µM] | i
CCCc1nnc2n1N=C(c1ccc(OC)c(OC)c1)CS2 | i | ? | i | 0% | -1% | ? | 16µM* | 0% | 15% | i
CC(C)(C)CC(C)(C)c1ccc(OCCO)cc1 | . | . | . | -9% | 0% | . | -7% | . | 24% | .
CC(=O)N1CCc2cc(C(=O)CN3CCCCC3)ccc21 | . | . | . | -4% | -6% | . | . | 2% | 18% | .
Cc1ccc(Cl)cc1N1CCN(C(CC(C)C)c2nnnn2CC2CCCO2)CC1 (stereo not drawn) | i | i | ? | -1% | 1% | i | 6% | 0% | -5% | i
N/C(=N/O)c1nc(N2CCCC2)nc(N(c2ccccc2)c2ccccc2)n1 | i | i | i | -1% | 0% | i | 0% | 0% | 0% | i
CCN(CC)C(=O)N1CCN(C)CC1 | i | i | i | -2% | 0% | ? | -31% | 4%[25.5 µM] | -6%[25.6 µM] | i
COc1ccc(C2CC(=O)c3c(O)cc(O)cc3O2)cc1O (stereo not drawn) | . | . | . | 2% | -1% | . | -1% | . | . | .
CC(C)OCC1CO1 (stereo not drawn) | . | . | . | -1% | -1% | . | -6% | . | 1% | .
CS(=O)(=O)N(CC(=O)N1CCCC1)c1ccc(Cl)c(Cl)c1 | . | . | . | -1% | -2% | . | 2% | 1% | 2%[11.4 µM] | .
CC(=O)N1CCc2cc(S(=O)(=O)N3CCOCC3)ccc21 | i | i | i | 0% | 1% | i | 25% | -2% | -5% | i
C=CCSc1nnc2c(n1)[nH]c1c(C)cccc12 | . | . | . | 0% | -1% | . | ? | ? | ? | .

Screens deposited in PubChem by National Center for Advancing Translational Sciences (NCATS).
